VDR inh = Inhibitors of the vitamin D receptor (VDR): qHTS. Vitamin D3 receptor (Homo sapiens), P11473. Potency, µM, for the others: max response, negative = inhibition, usual class: inhibitors. 400,000 tested, 0.93% active. VDR-SRC2-3 peptide fluorescence polarization, 2 h; active = well fitted inhibition curve with a large enough effect; inconclusive = small, poorly fitted or top-dose-only effect, or another doubt; inactive = no such curve, though single readings can be large or run the other way; also: series mostly up to about 120 µM
Target sequence (P11473 whole entry, looked up): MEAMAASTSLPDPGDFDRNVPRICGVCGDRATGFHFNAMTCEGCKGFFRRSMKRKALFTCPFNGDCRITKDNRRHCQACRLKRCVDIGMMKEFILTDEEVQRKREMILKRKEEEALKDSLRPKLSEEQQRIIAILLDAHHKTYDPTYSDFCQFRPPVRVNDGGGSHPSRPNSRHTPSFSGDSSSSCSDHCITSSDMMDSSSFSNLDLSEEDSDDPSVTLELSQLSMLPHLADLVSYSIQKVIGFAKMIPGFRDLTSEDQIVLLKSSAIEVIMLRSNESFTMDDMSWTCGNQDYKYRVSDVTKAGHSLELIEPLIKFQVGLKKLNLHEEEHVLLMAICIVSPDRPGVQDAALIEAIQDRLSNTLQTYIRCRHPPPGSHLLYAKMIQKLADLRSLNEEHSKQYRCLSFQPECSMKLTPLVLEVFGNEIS
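After 23 nl compound addition and a short centrifugation, plates sat for 2 hours at ambient temperature; polarization of fluorescence then indicated loss of VDR binding to peptide SRC2-3.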
Active calls of the source: *; ? = inconclusive; & = joins results of further samples; [ ] = dose if it differs, or a comment. % is scaled to controls: 0 for no effect and ±100 for the full control effect; potency is read from the fitted curve at half-maximal effect.

SMILES	VDR inh
CCCCOc1ccc(-c2nnn(C(C)C(=O)OCC)n2)cc1 (stereo unspecified)	1%
O=C(Nc1ccccc1)N1CC=C(c2ccc(F)cc2)CC1	1%
O=C(CC1(O)C(=O)N(Cc2cccc3ccccc23)c2ccccc21)c1cccnc1 (stereo unspecified)	-16%
Cc1ccc(-c2nc3cc(N)ccc3o2)cc1	-2%
COc1cccc(C2C=C(Nc3ccccc3)C(=O)N2c2ccccc2)c1 (stereo unspecified)	-29%
Cc1ccc(OCCCN2CCOCC2)c([N+](=O)[O-])c1	0%
Cc1onc(-c2ccccc2Cl)c1C(=O)N1CCN(c2ccccc2)CC1	-16%
CCN(CC)c1nc(Oc2ccc(C(=O)OC)cc2)nc(N2CCOCC2)n1	-16%
COc1ccc(CN2CCN(Cc3csc(C(C)=O)c3)CC2CCO)c(C)c1C (stereo unspecified)	3%
CC(=O)Nc1cc(-c2nn(C)c(=O)c3ccccc23)ccc1N1CCCCC1	33%[activator]
O=C(CC(NS(=O)(=O)c1ccc(Cl)cc1)c1ccco1)NCc1ccco1 (stereo unspecified)	-13%
COc1ccc2cc(CNc3ccc(C)cc3)c(=O)n(CC(=O)Nc3cccc(C(F)(F)F)c3)c2c1	1%
CCNC(=O)CN(c1ccccc1OC)S(=O)(=O)c1cccs1	5%
COc1ccc(CNC(=O)C2CCC(CNS(=O)(=O)c3ccccc3)CC2)cc1 (stereo unspecified)	-1%
Cc1ccc2oc(C(=O)N3CCN(Cc4nccn4C)CC3)c(C)c2c1	-2%
CC(C)C(=O)Nc1ccc(N2CCCC2)c(Cl)c1	12%
COc1cc(COCC(O)CN2CCOCC2)cc(OC)c1OC (stereo unspecified)	7%
Cc1ccc(S(=O)(=O)Nc2cccc(-c3ccc4nncn4n3)c2)cc1	-13%
O=[N+]([O-])c1cccc2c1ccc1ncccc12	-3%
O=C(NCCCN1CCCCC1)c1ccc2c(=O)n(CCc3ccccc3)c(=O)[nH]c2c1	-4%
O=C(Cc1cccs1)NNC(=O)c1ccccc1Cl	19%
CCOC(=O)C1=C(C)NC(C)=C(C(=O)OCC)C1c1cc(N)ccc1OC(F)F	1%
O=C(OCn1nnc2ccccc2c1=O)c1cccnc1	4%
COC(=O)CNC(=O)COC(=O)c1ccc(OC)c([N+](=O)[O-])c1	-5%
COc1ccc(C(=O)Nc2nnc(S(=O)(=O)N(C)Cc3ccccc3)s2)cc1	12%

Part of the list above, field by field.
Cc1ccc(S(=O)(=O)Nc2cccc(-c3ccc4nncn4n3)c2)cc1
- VDR inh: -13%
COC(=O)CNC(=O)COC(=O)c1ccc(OC)c([N+](=O)[O-])c1
- VDR inh: -5%

Further results follow:
SMILES	VDR inh
Cc1ccc2nc(NC(=O)C(NS(=O)(=O)c3cccc4nsnc34)C(C)C)sc2c1 (stereo unspecified)	-28%
COc1cccc(-c2cc(C(F)(F)F)nc(-n3cc(C)cn3)n2)c1	-17%
CCOC(=O)CCc1c(C)nc2c(c(C)nn2C(C)(C)C)c1C	-2%
CC(C)(C)OC(=O)N1CCC(c2c(C(=O)NCCc3ccsc3)cnn2-c2ccc(F)cc2F)CC1	5%
COC(=O)c1cc(C)cc(=O)o1	0%
COc1cccc(CNC(=O)C(=O)NCC2OCCCN2S(=O)(=O)c2cc(C)ccc2C)c1 (stereo unspecified)	-5%
CN(C)CCC1(C2=CCCC2)CC/C(=C/c2ccc(Cl)cc2)C1=O (stereo unspecified)	-21%
Cc1ccc2c(CC(=O)Nc3ccc(S(=O)(=O)N4CCCCC4)cc3)coc2c1	6%
COc1ccccc1N1CCN(C(=O)Cn2cnc3c2c(=O)n(C)c(=O)n3C)CC1	-4%
CCCc1cc(C(=O)NC2CCCC2)no1	-9%
CCN(CC)c1nc(-c2ccccn2)nc(-c2ccccc2)c1C#N	-1%
O=C(NN=C1C2CC3CC(C2)CC1C3)c1cccc(S(=O)(=O)N2CCOCC2)c1	7%
CCSc1nc(-c2ccccc2)c2cc(Cl)ccc2n1	-2%
CCO[C@@H]1OC(C(=O)N2CCCCCCC2)=C[C@H](C2CCCCC2)[C@H]1CCCO	5%
Cc1ccc(S(=O)(=O)n2nc(OC(=O)C3CCCCC3)cc2N)cc1	-13%
CC(CN1CCOCC1)OC(=O)c1ccc(C(C)(C)C)cc1 (stereo unspecified)	-9%
Cc1ccc(Cn2c(C(C)Nc3nc(-c4ccc(F)cc4)cs3)nc3cc(C(F)(F)F)ccc32)cc1 (stereo unspecified)	-18%
Cc1ccc(CC2C(=O)N(c3cc(C)ccc3C)C(=O)C2C)cc1 (stereo unspecified)	7%
Cc1ccc(NC(=O)C2=C(c3ccccc3)S(=O)(=O)CCS2(=O)=O)cc1	?
CC1CCC(C(C)C)C(OCC(O)CN2CCOCC2)C1 (stereo unspecified)	17%
CCOCCCNC(=S)N1C2CCC1CC(NC(=O)Nc1ccc(C(=O)OCC)cc1)C2 (stereo unspecified)	-13%
COC(=O)C1=C(C)OC(N)=C(C#N)C1c1cc(OC)ccc1OC (stereo unspecified)	6%
Cc1ccc(-n2ncc3c(N4CCC(Cc5ccccc5)CC4)ncnc32)cc1C	11%
COc1ccc(OC)c(C(=O)N2CCC(CCC(=O)NC3CC3)CC2)c1	-1%
COC(=O)C1=C(C)Nc2ncnn2C1c1ccc(OCc2ccccc2)cc1 (stereo unspecified)	-17%
(next part)
SMILES	VDR inh
O=C(Nc1ccc(F)c(F)c1)c1ccc(F)c(S(=O)(=O)N2CCC3(CC2)OCCO3)c1	-19%&5%
Cc1ccc(N2CC(=O)Nc3c(sc4nc(C)cc(C)c34)C2=O)cc1	-11%
O=C(COc1ccc2c(C(F)(F)F)cc(=O)oc2c1)NCc1cccs1	-8%
Cc1nc(-c2nnc(SCC(=O)Nc3cc(C(F)(F)F)cc(C(F)(F)F)c3)n2C)cs1	5%
Cc1c(N2C(=O)CS/C2=N\N=C\c2ccc(Cl)cc2)c(=O)n(-c2ccccc2)n1C	0%
CCCN(Cc1cc2cc(C)ccc2[nH]c1=O)C(=O)c1cccc(Cl)c1	14%
CS(=O)(=O)N(CC(=O)Nc1ccccc1C(=O)N1CCOCC1)c1cccc(F)c1	-13%
COC(=O)c1cc2oc3ccccc3c2n1Cc1ccc(C)cc1	11%
O=C(NC(c1ccccc1)c1ccccc1)N1CCN(CCO)CC1	-1%
Fc1cccc(NC(=S)NCc2ccccn2)c1	31%[activator]
CC(C)C(N)C(=O)O (stereo unspecified)	5%
COc1ccccc1N1CCN(C(=O)NC23CC4CC(CC(C4)C2)C3)CC1	7%
Cc1cc(NC(=O)CCOc2ccc(F)cc2)no1	?
CCn1c(SCC(=O)O)nc2sc3c(c2c1=O)CCC3	3%
O=C(CC1C(=O)NCCN1Cc1ccc(Cl)c(F)c1)NCC1CCOCC1 (stereo unspecified)	-1%
Nc1ccc(S(=O)(=O)N2CCCc3ccccc32)cc1	-21%
COc1cc2c(cc1OC)[C@H](Cc1ccc(O)cc1)NCC2	?
Cc1c(NC(=O)C2(C)CCCCC2)c(=O)n(-c2ccccc2)n1C	17%
CCN(CC)CCNC(=O)c1ccc(Cl)c(S(=O)(=O)N2CCCCCC2)c1	9%
COc1ccc(-c2c[n+]3c4n2CCCCC4=C(c2ccc(Br)cc2)C3)cc1	7%
Cc1nn(CC(=O)NCCCN2CCOCC2)c(C)c1[N+](=O)[O-]	-9%
CC1Cc2cc(S(=O)(=O)CCC(=O)Nc3cccc(F)c3)ccc2N1C(=O)C1CC1 (stereo unspecified)	-4%
CCOC(=O)c1ccccc1OC(=O)NNc1ccccc1	-15%
COc1ccccc1CCNC(=O)C1CCC(=O)N(C2CCCCCC2)C1 (stereo unspecified)	-8%
CC(C)[C@H](NC(N)=O)C(=O)Nc1cccc([N+](=O)[O-])c1	-12%
Continued.
SMILES	VDR inh
CN(C)C(=O)c1c(C(F)(F)F)nn(C)c1Cl	-13%
CC(CCc1ccccc1)NC(=O)CSc1n[nH]c(-c2ccccc2Cl)n1 (stereo unspecified)	13%
COc1cnn(-c2ccc(C)cc2)c(=O)c1Br	-1%
CC(C)CN(C(=O)COC(=O)c1nc(Cl)ccc1Cl)c1c(N)n(Cc2ccccc2)c(=O)[nH]c1=O	-4%
CCOc1cccc(CN2CCCC(N3CCN(c4cccc(Cl)c4)CC3)C2)c1O (stereo unspecified)	-10%
C/C=C\C=C/C(=O)Nc1cccc(C2=NOC3(C2)C[C@@H](C(N)=O)N(C(=O)COc2ccc(Cl)cc2)C3)c1 (stereo partly specified)	?
CC1CCN(c2ccc(NC(=O)C3CCCN3S(=O)(=O)c3ccc(F)cc3)cc2)CC1 (stereo unspecified)	?
COc1cc(C(=O)OCC(=O)NCc2ccc(F)cc2)ccc1OCC(C)C	-1%
CCCCOc1ccc(C(NC(=O)OCC)NC(=O)OCC)cc1	9%
COc1cc2nc(CN3CCC(Cc4ccccc4)CC3)[nH]c(=O)c2cc1OC	-6%
CC1(C)CC(O)C(C(O)c2cccc([N+](=O)[O-])c2)C(C)(C)N1 (stereo unspecified)	-2%
CSc1nnc(CNC(=O)C23CC4CC(CC(C4)C2)C3)n1Cc1ccccc1	-11%
CCOc1cc(C2C(C(=O)Nc3ccc(OC)cc3)=C(C)Nc3nc(SC)nn32)ccc1O (stereo unspecified)	-10%
N#CCCN(C(=O)CO/N=C/c1cccc([N+](=O)[O-])c1)c1ccccc1	-13%
O=C1CN(CC(=O)NC(=O)NCc2ccccc2)CCN1	17%
C=CCN1C=C/C(=C\C=C(C#N)C#N)c2ccccc21	?
COc1cc(OC)c(NC(=O)CC(C)S(=O)(=O)c2ccc3c(c2)NC(=O)CO3)cc1Cl (stereo unspecified)	5%
COc1cc(NC(=O)c2noc3c2CSc2ccccc2-3)cc(OC)c1OC	2%
Cc1ccc(NC2CCCCC2NS(=O)(=O)c2ccc(Cl)cc2)cc1 (stereo unspecified)	-8%
COCCCNCCCOc1ccc(Cl)cc1C(C)(C)C	-14%
Cc1ccc(-n2ncc(C(=O)NCCCN3CCN(C)CC3)c2C2CCN(C(=O)OC(C)(C)C)CC2)c(C)c1	10%
COc1cc(OC)c(NC2c3ccccc3C(=O)N2c2cc(C)ccn2)cc1Cl (stereo unspecified)	-14%
C[C@H](CO)N1C[C@H](C)[C@@H](CN(C)C(=O)Nc2ccc3c(c2)OCO3)Oc2ccc(NS(=O)(=O)c3ccccc3)cc2C1=O	9%
COc1cc(NC(=O)N(Cc2ccco2)C2CCN(C(C)=O)CC2)cc(OC)c1OC	10%
Cn1c(=O)n(Cc2ccccc2)c2ccccc21	7%

By substructure: the entries above containing a Cl atom.
SMILES	VDR inh
Cc1onc(-c2ccccc2Cl)c1C(=O)N1CCN(c2ccccc2)CC1	-16%
O=C(CC(NS(=O)(=O)c1ccc(Cl)cc1)c1ccco1)NCc1ccco1 (stereo unspecified)	-13%
CC(C)C(=O)Nc1ccc(N2CCCC2)c(Cl)c1	12%
O=C(Cc1cccs1)NNC(=O)c1ccccc1Cl	19%
CN(C)CCC1(C2=CCCC2)CC/C(=C/c2ccc(Cl)cc2)C1=O (stereo unspecified)	-21%
CCSc1nc(-c2ccccc2)c2cc(Cl)ccc2n1	-2%
Cc1c(N2C(=O)CS/C2=N\N=C\c2ccc(Cl)cc2)c(=O)n(-c2ccccc2)n1C	0%
CCCN(Cc1cc2cc(C)ccc2[nH]c1=O)C(=O)c1cccc(Cl)c1	14%
O=C(CC1C(=O)NCCN1Cc1ccc(Cl)c(F)c1)NCC1CCOCC1 (stereo unspecified)	-1%
CCN(CC)CCNC(=O)c1ccc(Cl)c(S(=O)(=O)N2CCCCCC2)c1	9%
CN(C)C(=O)c1c(C(F)(F)F)nn(C)c1Cl	-13%
CC(CCc1ccccc1)NC(=O)CSc1n[nH]c(-c2ccccc2Cl)n1 (stereo unspecified)	13%
CC(C)CN(C(=O)COC(=O)c1nc(Cl)ccc1Cl)c1c(N)n(Cc2ccccc2)c(=O)[nH]c1=O	-4%
CCOc1cccc(CN2CCCC(N3CCN(c4cccc(Cl)c4)CC3)C2)c1O (stereo unspecified)	-10%
C/C=C\C=C/C(=O)Nc1cccc(C2=NOC3(C2)C[C@@H](C(N)=O)N(C(=O)COc2ccc(Cl)cc2)C3)c1 (stereo partly specified)	?
COc1cc(OC)c(NC(=O)CC(C)S(=O)(=O)c2ccc3c(c2)NC(=O)CO3)cc1Cl (stereo unspecified)	5%
Cc1ccc(NC2CCCCC2NS(=O)(=O)c2ccc(Cl)cc2)cc1 (stereo unspecified)	-8%
COCCCNCCCOc1ccc(Cl)cc1C(C)(C)C	-14%
COc1cc(OC)c(NC2c3ccccc3C(=O)N2c2cc(C)ccn2)cc1Cl (stereo unspecified)	-14%

Other results.
SMILES	VDR inh
CC(=O)N1N=C(c2cccc([N+](=O)[O-])c2)OC1c1ccc(Br)cc1 (stereo unspecified)	-8%
O=C(c1ccc2c(c1)CCN2S(=O)(=O)c1ccccc1)N1CCN(c2ccccc2)CC1	-4%
Cc1cccc(NC(=S)NCC2CCCO2)c1 (stereo unspecified)	-16%
CCO/N=C(\N)c1[nH]ncc1Br	-13%
COC(=O)c1c(-c2ccc(OC)cc2)sc2ccc(-c3ccc4c(c3)OCO4)cc12	-18%
Cc1nc(N2CCOCC2)nc(Oc2ccccc2)c1[N+](=O)[O-]	-18%
COC(=O)c1c(N=CN(C)C)c(C#N)c2n1CCCC2	-12%
COc1cccc(NC(=S)NC(=O)c2cccnc2)c1	-8%
COCCCNC(=S)N(Cc1cccnc1)Cc1ccc(OC)c(OC)c1	0%
Cc1ccc(CNC(=S)Nc2cc(C)ccc2OC(F)F)cc1	-12%
C#C[C@@]1(OC(C)=O)CC[C@@H]2[C@@H]3CCC4=C[C@@H](OC(C)=O)CC[C@H]4[C@H]3CC[C@]21C	1%
Cc1cc(/C=N/n2cnnc2)c(C)n1-c1ccc(OCc2ccc(F)cc2)cc1	-7%
CN(Cc1ccccc1)C(=S)Nc1ccc2nc3n(c(=O)c2c1)CCCCC3	16%
CC(CS(=O)(=O)c1ccccc1[N+](=O)[O-])N1CCOCC1 (stereo unspecified)	-6%
O=C(c1ccco1)N(Cc1ccc2c(c1)OCO2)Cc1cc2cc3c(cc2[nH]c1=O)OCO3	5%
Cc1nc(-n2nc(C)c(Cc3ccc4c(c3)OCO4)c2C)sc1C(=O)Nc1ccc(Cl)cc1	-1%

From PubChem

A portion of the library, so the mix of outcomes need not match the whole.
